# gsp ag = activates gsp, the McCune-Albright syndrome mutation. gsp mutant cells, cAMP HTRF, 30 min; control for the full effect not named in the record. Potency, µM (highest dose often 76.9 µM), for the others: top-dose activation (cAMP increase), hits mostly activators. actives 0.13% (n = 340,000). AID 624287; active = well fitted activation curve with a large enough effect; inconclusive = small, poorly fitted or top-dose-only effect, or another doubt; inactive = no such curve, though single readings can be large or run the other way; cell line not stated here;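 further: phosphodiesterase inhibitor Ro 20-1724 added with compounds to block cAMP breakdown; potency means the concentration at half of the fitted maximal effect; nearly all actives have a fitted effect of over 60% in size; about a fifth of the inactives were tested at one dose only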
#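 Cells stably selected in G418 were plated at 2000/well, grown 16-24 hr, then given compounds in DMSO with the PDE inhibitor […] (300 uM solution added) for 30 min at 37C; cAMP was read by HTRF.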
# TRPML1 inh = inhibitors of human TRPML1 channel; Q9GZU1; TRPML1-inducible cells, Ca2+ dye fluorescence, FDSS; stronger effect = lower value; inhibition of EC80 agonist-evoked calcium signal; activity change, negative = inhibition, % (no concentration beside the values); actives 0.02% (n = 390,000); in the data active means activity change below about -50%; inconclusive means about -30% to -50%; inactive means above about -30%;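 further: stimulus is agonist 54-4 at its EC80 concentration; on the % scale 0 is the no-effect control and ±100 the full control effect; compound concentration not given in the record; the text of the record puts the active cut at -80%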
# Target sequence (Q9GZU1 whole entry, looked up): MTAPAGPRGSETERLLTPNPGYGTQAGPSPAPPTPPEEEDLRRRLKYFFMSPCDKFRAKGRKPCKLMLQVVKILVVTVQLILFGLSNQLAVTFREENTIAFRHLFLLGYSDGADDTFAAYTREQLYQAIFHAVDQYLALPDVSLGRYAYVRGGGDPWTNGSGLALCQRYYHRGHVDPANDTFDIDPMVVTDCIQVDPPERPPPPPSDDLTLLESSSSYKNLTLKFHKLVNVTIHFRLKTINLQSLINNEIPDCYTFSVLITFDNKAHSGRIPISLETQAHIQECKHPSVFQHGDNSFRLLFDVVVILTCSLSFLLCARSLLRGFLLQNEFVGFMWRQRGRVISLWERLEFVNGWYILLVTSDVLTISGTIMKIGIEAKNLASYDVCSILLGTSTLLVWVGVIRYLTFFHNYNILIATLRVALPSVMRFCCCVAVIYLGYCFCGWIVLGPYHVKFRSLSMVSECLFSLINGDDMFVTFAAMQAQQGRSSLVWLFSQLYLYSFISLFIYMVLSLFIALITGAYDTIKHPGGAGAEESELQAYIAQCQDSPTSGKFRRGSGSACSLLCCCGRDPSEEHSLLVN
#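 Tet-induced TRPML1-DL cells loaded with Ca8 no-wash calcium dye were read kinetically on FDSS. Compound addition was followed by EC80 agonist 54-4 (4 uM final); inhibition was read over 110 s.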
# Menin-MLL FL inh = menin-MLL binding inhibition, fluorescein peptide; Fluorescence polarization, fluorescein-MLL peptide displacement from menin; FP activity change, % at 61.4 µM; 290,000 tested, under 10 active; AID 1766; inconclusive = falling polarisation curve, or a change in total fluorescence; inactive = total fluorescence flat and polarisation flat or rising; no compound was filed as active; the % refers to the polarisation; negative = inhibition;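 further: % of control where 0% means no effect; inhibitors lower the polarisation; unlabelled MLL peptide was the positive control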
# TRPML1 agonist = activates the human TRPML1 channel | Q9GZU1 | TRPML1-expressing cells, Ca2+ dye fluorescence, FDSS; host cell line not named in the record; reference of the full effect not given here | activation, % (no concentration beside the values) | actives 0.12% (n = 410,000); in the data active = activation above about 50%; inconclusive = about 30% to 50%; inactive = below about 30%; further: 0% is about no effect; the text of the record puts the active cut at 80%
#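 Cells: TRPML1-DL, 1X Tet inducer, ~16 h at 37 degrees C/5% CO2. Dye: ABD Ca8 no-wash + quencher, 45-90 min RT. Read: 10 s baseline, compound add, 110 s agonist phase; 54-4 EC80 (4uM final), 110 s antagonist phase.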
# ClpP mod = qHTS Assay for Activators of ClpP. ATP-dependent Clp protease proteolytic subunit (Bacillus subtilis (strain 168)), P80244. purified B. subtilis ClpP, FRET peptide cleavage, 20 min. Potency, µM (series often up to 57.5 µM), for the others: at the top dose activity change, negative = active. actives 1.9% (n = 340,000). AID 651965, 2013; active = well fitted falling curve with a large enough effect; inconclusive = small, poorly fitted or top-dose-only effect; inactive = no such curve, though single readings can be large or run the other way; further: potency means the concentration at half of the fitted maximal effect; the source files actives as falling curves though it sought activators and does not explain the sign; nearly all actives have a fitted effect of over 65% in size; many hits overshoot -100%
# Target sequence (P80244 whole entry, looked up): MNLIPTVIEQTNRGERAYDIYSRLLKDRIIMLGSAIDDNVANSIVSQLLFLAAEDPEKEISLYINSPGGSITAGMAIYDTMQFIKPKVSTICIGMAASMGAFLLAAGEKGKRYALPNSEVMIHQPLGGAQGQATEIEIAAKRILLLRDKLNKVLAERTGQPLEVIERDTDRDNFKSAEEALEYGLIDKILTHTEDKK
#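 FRET quenching reversal measured ClpP activation: 10 microg/mL B. subtilis ClpP at pH 8 with the FRET-FV decapeptide, read at 430 nm after 320 nm excitation. The 20-min minus 0-min signal was scaled between DMSO/no-enzyme wells and ADEP (5.8 microM final).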
# gsp antag = antagonists of gsp mutant (McCune-Albright syndrome). gsp-mutant cells, cAMP HTRF, 30 min; control for the full effect not named in the record. Potency, µM (titrated, usually from 76.9 µM), for inactives: top-dose activity change, negative = inhibition, hits mostly inhibitors. actives 0.4% (n = 340,000); active = falling curve of any shape with a large fitted effect; inconclusive = falling curve, mostly with a smaller effect; inactive = flat or rising curve; cell line not stated here;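 further: intracellular cAMP measured with PDE inhibitor Ro 20-1724 present during compound exposure; potency means the concentration at half of the fitted maximal effect; on the % scale 0 is the no-effect control and ±100 the full control effect; nearly all actives have a fitted effect of over 65% in size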
#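 Measurement of cellular cAMP by homogeneous time-resolved fluorescence following a 30 min compound exposure at 37C. The PDE inhibitor […] was present throughout; the assay buffer was DPBS with 0.05% BSA and 0.005% Tween 20.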
# * marks the source's active call; other numbers are inactive results; ? = inconclusive; / = not tested or not shown; & = joins results of further samples; [ ] = another dose, or the depositor's remark. This is a random part of the collection; about 2.1% have a hit in one of these screens.
SMILES,gsp ag,TRPML1 inh,Menin-MLL FL inh,TRPML1 agonist,ClpP mod,gsp antag
CC(=O)Nc1ccccc1NS(=O)(=O)c1cccc([N+](=O)[O-])c1,10%[15.4 µM],16,-1.2,0.0,/,4%
Cn1cccc1CC(=O)N/N=C\c1c2ccccc2cc2ccccc12,-57%[inhibitor],2,12,0.5,-1.8%,-4%
COc1ccc2[nH]c(=O)c(COC(=O)c3ccco3)cc2c1,14%,7,0.7,-0.8,-19%,13%
Cc1cccn2c(NCc3ccc4c(c3)OCO4)c(-c3ccc(O)cc3)nc12,16%[15.4 µM],3,1.9,2.6,/,-28%
Cc1ccc(NC(=O)Cn2c(=O)n(CCC(C)C)c(=O)c3cccnc32)cc1C,/,0,/,-0.7,71%,/
COc1ccc(NS(=O)(=O)c2cccs2)cn1,4%[15.4 µM],-12,-9.0,-1.2,/,-26%
O=C(C[n+]1ccccc1)N/N=C/c1ccco1,9%[15.4 µM],5,0.1,-0.1,/,2%
COc1nc(N/N=C/c2ccccc2F)nc(N2CCCCC2)n1,-26%,-2,3.6,2.2,-0.9%,2%
O=C(COc1ccc2ccccc2c1)Nc1cccc(C(=O)Nc2ccccc2C(=O)O)c1,-19%,44,3.6,1.0,-2.3%,-1%
CSc1ccccc1NC(=O)CN(C)CC(=O)Nc1c(F)cccc1F,4%,-16,7.0,0.5,?,8%
CN(C)S(=O)(=O)c1ccc(Oc2ccccc2)cc1,3%,14,4.1,2.4,-2.1%,-15%
CCC1(CC)NC(=O)N(CC(=O)N2CCc3ccccc32)C1=O,14%,-16,/,-0.3,/,7%
O=C(/C=C/[C@H]1O[C@@H](n2ccc(=O)[nH]c2=O)[C@H](O)[C@@H]1O)N1CCN(CCc2ccccc2)CC1,/,-13,/,0.6,-1.6%,/
COc1ccc(S(=O)(=O)n2c(C)nc3ccccc32)cc1C,4%,-9,0.9,-0.6,0.3%,-3%
COc1ccc(S(=O)(=O)N2CCOCC2)cc1NC(=O)CCc1nc2ccccc2c(=O)[nH]1,15%,17,/,-0.1,-2.7%,8%
Cc1ccccc1S(=O)(=O)Cc1ccc(C(=O)NCc2ccc(F)cc2)o1,-38%[inhibitor],4,-2.5,-1.1,-1.2%,-7%
Cc1nc2ccc(S(=O)(=O)NC(C(=O)N3CCCC3)C(C)C)cc2s1 (stereo not drawn),9%,3,-1.6,0.1,-3.8%,6%
CC(=O)Nc1ccc(NC(=O)COC(=O)[C@@H]2CCCN2C(=O)c2cccs2)cc1,17%,33,/,0.4,/,-2%
CCN(c1ccc(OC)cc1)S(=O)(=O)c1nnc(NC(=O)c2ccccc2C)s1,/,?,/,4.7,-4.4%,/
Cn1c(C(=O)N2CCN(C(=O)c3ccco3)CC2)cc2c(=O)n3ccccc3nc21,?,-6,14,0.2,13%,16%
O=C(CNC(=O)c1ccco1)Nc1ccc(F)cc1,-5%[15.4 µM],23,-2.9,-0.6,-2.5%,16%
COc1ccccc1NC(=S)NCc1cccnc1,24%,-14,1.2,0.1,1.3%,-1%
CS(=O)(=O)N1CCc2cc(C(=O)N3CCN(c4ccccc4F)CC3)ccc21,10%,0&-2,/,-1.3&0.8,1.5%&-1.1%,22%
COc1ccc(C(=O)NC(=S)Nc2ccc(Cl)c(C(=O)O)c2)cc1,-12%,14,-0.7,0.8,/,-17%
Cc1cc(C)c(C#N)c(SCc2cn3ccccc3n2)n1,7%,0,6.0,3.6,-3.8%,-1%
O=C(c1cccs1)N(Cc1nc2sc3c(c2c(=O)[nH]1)CCCC3)C1CCCC1,5%,31,12,0.1,1.2%,-28%
CC(=O)Nc1ccc(NC(=O)c2nc(S(=O)(=O)Cc3ccccc3)ncc2Cl)cc1,-7%,2,/,1.2,3.4%,-3%
O=C(N/N=C/c1c(-c2ccccc2)[nH]c2ccccc12)c1cccnc1,?,-6,3.5,0.2,-4.4%,?
Cn1c(SCC(=O)NNC(=O)c2ccccc2Br)nnc1C(F)(F)F,2%,-3,/,1.6,-1.1%,6%
COc1cc2ccccc2cc1C(=O)NC(=S)Nc1cc(C(=O)O)ccc1C,22%[15.4 µM],39,-2.8,-0.7,/,-20%
Cc1cc(C)c(NC(=O)C(=O)NCCc2csc(-c3ccc(F)cc3)n2)c(C)c1,/,-12,/,1.6,13%,/
O=C(CCS(=O)(=O)c1ccccc1)OCC(=O)N1CCN(S(=O)(=O)c2ccc(Cl)cc2)CC1,-9%[15.4 µM],-6,/,-0.2,-0.8%,1%
CCc1ccccc1NC(=O)c1sc(-n2nc(C)c(Cc3ccccc3)c2C)nc1C,/,9,/,0.6,-1.6%,/
CCS(=O)(=O)N1CCCC(C(=O)NCCCOC(C)C)C1 (stereo not drawn),1%,1,1.5,0.2,-0.6%,-4%
COc1ccc2c(c1)-c1nc(/N=C/c3ccccc3O)sc1CC2,-23%,-1,2.8,0.0,-2.4%,0%
O=C(NCc1cccc(F)c1)C1=Cc2cc(Br)ccc2OC1,/,4,/,-0.7,-3.9%,/
CCOc1ccc2c(O)csc2c1,?,23,0.5,0.0,?,1%
Oc1csc(Cc2nc(-c3ccc4ccccc4c3)cs2)n1,1%,17,1.3,2.1,-7.3%,-12%
CC1CCCN(C(=O)C(C)Sc2nc(-c3ccccc3)cc(C(F)(F)F)n2)C1 (stereo not drawn),?,27,1.9,0.3,-1.4%,-22%
CCOC(=O)C1CCN(C(=O)c2ccc(NC(=O)c3nsc4ccccc34)cc2)CC1,/,21,/,1.5,1.3%,/
CC(C)CCNC(=O)Cn1cc(S(=O)(=O)Cc2ccc(F)cc2)c2ccccc21,/,-1,/,1.5,-0.7%,/
CC1(C)OC(=O)C(=CNCCc2ccc(O)cc2)C(=O)O1,?,11,2.3,-0.8,/,10%
Cc1cc(C)c2[nH]c(=O)c(CN(Cc3cccs3)C(=S)NCc3ccco3)cc2c1,1%,47,3.4,0.4,-19%,-17%
O=C(NCCCN1CCN(c2ccccc2F)CC1)c1ccc2nc(Cc3ccccc3)oc2c1,/,11,/,2.2,-2.0%,/
Cc1cccc(NC(=O)NCC(c2ccc(F)cc2)N2CCN(C)CC2)c1 (stereo not drawn),2%,-8,-0.8,-0.4,2.9%,5%
CC(=O)c1cccc(NC(=O)Cc2coc3cc4c(cc23)CCC4)c1,19%,3,2.1,2.0,-1.3%,-16%
Cc1nc2c3ccccc3n(CC(=O)c3ccc(F)cc3)c(=O)n2n1,1%,9,0.6,0.3,1.7%,3%
O=C(NCCCN1CCOCC1)c1nn(-c2ccccc2)c(=O)c2ccccc12,-7%[15.4 µM],-13,/,0.4,-4.7%,3%
O=c1cc(-c2ccccc2)c2ccc3c(c2o1)CN(Cc1cccc(Cl)c1)CO3,/,-3,/,0.3,-29%,/
CN(C)C(CNc1ncnc2sccc12)c1cccs1 (stereo not drawn),-11%,35,5.5,0.5,1.6%,6%
CCOC(=O)N1CCN(C(=O)C2CCN(S(=O)(=O)N3CCCC3)CC2)CC1,-37%[inhibitor],8,9.0,0.1,1.0%,2%
COC(CC(=O)NNC(=S)Nc1ccccc1)OC,-33%[inhibitor],-2,-1.9,0.7,/,8%
C[C@H](CO)N1C[C@H](C)[C@@H](CN(C)S(=O)(=O)c2ccc(F)cc2)Oc2c(NC(=O)Nc3ccc4c(c3)OCO4)cccc2C1=O,/,-2,/,-0.7,-3.2%,-13%
COc1cc(/C=N/Nc2nncn2/N=C/c2ccc(O)c(OC)c2)ccc1O,21%,-22,-3.2,0.6,/,2%
O=C(c1ccc(Cl)c(S(=O)(=O)N2CCOCC2)c1)N(c1ccccn1)C1CCCCC1,17%[15.4 µM],-15,-1.2,-0.7,0.4%,-38%
CC(C)(C)c1ccc(C(=O)Nc2ccc(CN3CCS(=O)(=O)CC3)cc2)cc1,-11%,7,4.0,-0.3,/,-7%
Cc1noc(C)c1S(=O)(=O)Nc1ccc(O)c2c(=O)cc(-c3ccccc3Cl)oc12,15%,86,-4.0,-0.7,-0.3%,-6%
Cc1ccc(S(=O)(=O)N(C)CCN(C)S(=O)(=O)c2ccc(C)cc2)cc1,-1%,49,/,2.9,/,6%
COc1ccc(CCN(Cc2cc3ccc(C)cc3n3nnnc23)C(C)=O)cc1OC,-4%[15.4 µM],3,-1.7,1.9,/,-8%
C[C@H]1CN(C2CCCCC2)C(=O)[C@@H]1CC(=O)NCc1ccccc1,-25%,-13,-1.6,1.2&1.3,-2.0%&-0.1%,5%

# Some of the entries so far, with two lines to a compound.
# Each structure is followed by: gsp ag, TRPML1 inh, Menin-MLL FL inh, TRPML1 agonist, ClpP mod, gsp antag
O=C(c1cccs1)N(Cc1nc2sc3c(c2c(=O)[nH]1)CCCC3)C1CCCC1
    5%, 31, 12, 0.1, 1.2%, -28%
CC(=O)Nc1ccc(NC(=O)c2nc(S(=O)(=O)Cc3ccccc3)ncc2Cl)cc1
    -7%, 2, /, 1.2, 3.4%, -3%
O=C(N/N=C/c1c(-c2ccccc2)[nH]c2ccccc12)c1cccnc1
    ?, -6, 3.5, 0.2, -4.4%, ?

# Next part.
SMILES,gsp ag,TRPML1 inh,Menin-MLL FL inh,TRPML1 agonist,ClpP mod,gsp antag
CCOc1ccc(CCNC(=O)c2cn(-c3ccc(OC)cc3)c(=O)c3ccccc23)cc1OCC,/,22,/,1.4,-15%,/
COc1ccc(C(C(=O)NCc2ccccc2)N(Cc2cccs2)C(=O)c2cnccn2)cc1 (stereo not drawn),?,6,1.6,0.0,-0.5%,-16%
CCCCCCCC(=O)N/N=C/c1ccco1,-105%[inhibitor],22,2.1,1.0,-0.7%,-5%
COc1cc(OC)c(C(=O)/C=C/c2ccccc2)c(O)c1O,/,/,-0.3,/,1.8%,?
Clc1ccc(OCc2nn3c(-c4ccncc4)nnc3s2)cc1,12%,-5,6.9,-1.4,-17%,6%
Nc1nc(N)nc(-c2cc([N+](=O)[O-])ccc2O)n1,5%,21,/,0.0,-1.9%,6%
O=C(Nc1cccc(F)c1)c1cc(S(=O)(=O)NCCC2=CCCCC2)ccc1F,-15%,7,4.5,1.4,-1.0%,-4%
CC(C)NC(=O)CSc1nc(N)c(NC(=O)c2ccccc2F)c(=O)[nH]1,-44%,-9,0.1,1.3,0.1%,-4%
NC(=O)C1CCN(C(=O)c2ccc(NC3=NC4CS(=O)(=O)CC4S3)cc2)CC1 (stereo not drawn),-26%,-8,5.1,-0.3,-1.1%,1%
O=C(CSc1nnc(CNc2ccc(Cl)cc2)n1Cc1ccccc1)NCc1ccco1,0%,52,2.9,7.3,-3.9%,?
O=C(CN1CCc2ccccc2C1)Nc1ccccc1N1CCCCCC1,-30%[inhibitor],-4,0.9,0.2,-3.0%,-3%
